# Bioassay records from PubChem BioAssay.
# CDC25B-CDK2 inh: primary biochemical HTRF screen for blockers of M-phase inducer phosphatase 2 binding to CDK2/cyclin A; AID 1259370, 2018; HTRF CDC25B-CDK2/CyclinA binding, anti-His/anti-Flag; active compounds read high; P30305+P24941; z-score (no concentration beside the values); 0.72% of 94,000 active;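 further: score is relative to mean and SD of negative controls; strong numbers were not always called active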
# TAR Tat displ: TAR RNA-Tat peptide displacers, HIV-1, primary screen, biochemical, FRET, FAM/TAMRA-labeled Tat. HIV-1 TAR RNA, Tat peptide displacement FRET; active compounds read high. z-score (test concentration not listed). 0.6% of 100,000 active. AID 1259389, 2018;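 further: score is relative to mean and SD of negative controls; some compounds called inactive have numbers as strong as hits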
# The depositor's hits bear a star; · = no result given.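 How the source made its calls: active means z-score from 3 up in half or more of its runs; inactive means the rest.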
# Sequence of screens – TAR Tat displ	CDC25B-CDK2 inh
CCOC(=O)c1noc2ncnc(Nc3ccc(Cl)cc3)c12
 : 0.08	·
CCc1ccccc1N1C(=O)C2C3c4ccccc4C(C(=O)O)(c4ccccc43)C2C1=O (configuration not stated)
 : 1.13	0.11
CCCCN1C(=O)C2(/C(=C(/O)c3ccc(Cl)cc3)C(=O)C(=O)N2CCCOC)c2ccccc21 (configuration not stated)
 : 0.46	0.81
COc1ccc(N2CCN(C(=O)C(Cc3ccccc3)NS(=O)(=O)c3cccs3)CC2)cc1 (configuration not stated)
 : ·	-0.65
CC12CN3CC(C)(CN(C1)C3c1ccc(N)cc1)C2O (configuration not stated)
 : -1.05	-1.79
CCCCCNc1nnnc2c1sc1nc(N3CCOCC3)c3c(c12)CC(C)(C)OC3
 : ·	-0.34
O=S(=O)(NCCc1ccc(Cl)cc1)c1ccc(N2CCCCS2(=O)=O)cc1
 : 0.13	·
COc1ccc(CN2C(=O)c3oc4ccc(F)cc4c(=O)c3C2c2cccc(O)c2)cc1 (configuration not stated)
 : 0.13	-0.15
Cc1sc(NC(=O)C(C)C)c(C(=O)O)c1C
 : 1.8	-0.34
COc1cccc(-c2noc(Nc3ccc4c(c3)OCCO4)n2)c1OC
 : 1.99	·
O=S(=O)(NCCSc1nnnn1-c1ccccc1)c1ccc(F)cc1
 : 1.71	0.25
O=C1C2CCCN2C(c2ccc(Cl)cc2)N1c1ccc(Cl)cc1 (configuration not stated)
 : 2.3	-2.35
CCc1nnc(SCc2nc(-c3ccccc3)oc2C)c2cc3sccc3n12
 : 2.26	·
Cc1oc2ncnc(N3CCOCC3)c2c1C(=O)N(C)c1ccccc1Cl
 : 0.44	·
Cc1cccc(NC(=O)c2c3c(nc4ccccc24)C(=O)N(C2CCCCC2)C3)n1
 : 1.05	·
O=C(Nc1ccc(C(=O)NCCN2CCCC2)cc1)C1=CSCCO1
 : 3.12	·
Nc1ccc2nn(-c3cccc4ccccc34)nc2c1
 : 0.25	0
O=C(CCc1nc(-c2ccco2)no1)Nc1nccs1
 : 1.47	-0.8
O=C1CCSc2ccc(S(=O)(=O)N3CCCCC3)cc2N1
 : 1.21	·
COc1ccccc1C1CC(=O)C2=C(C1)NC(C)=C(C(=O)OC(C)C)C2c1cccs1 (configuration not stated)
 : -0.16	-2.75
CCCCc1ccc(N=CNO)c(C)c1
 : ·	-2.86
Cc1cn(S(=O)(=O)c2cn(C)nc2C(F)(F)F)nc1C(F)(F)F
 : ·	-2.86
CCCSC(=S)c1c(C)[nH]n(-c2ccccc2)c1=O
 : ·	-2.23
CC1(C(=O)NC2CCCC2)Cn2c(ccc2-c2ccco2)C(=O)N1c1ccc2c(c1)OCCO2 (configuration not stated)
 : -0.51	·
O=C1CN(C(=O)c2ccc(Br)cc2)C(c2ccc(F)cc2)c2cc(F)ccc2N1 (configuration not stated)
 : ·	-1.11
CCCCc1nn2c(=O)cc(COC(=O)COc3ccc(OC)cc3)nc2s1
 : 0.08	·
N/C(=N\OC(=O)C1CCc2ccccc2O1)c1ccc(C(F)(F)F)cc1 (configuration not stated)
 : ·	-0.72
Cc1nc(C)c(NC(=O)N2CCCCC2C)cc1NC(=O)N1CCCCC1C (configuration not stated)
 : -1.2	-1.71
CCN1C(=O)C(Cc2nc3ccccc3c(=O)n2Cc2ccccc2)c2ccccc21 (configuration not stated)
 : -0.5	0.86
Cc1c(-c2nsc(NC(=O)c3cccs3)n2)nnn1-c1ccc(Cl)cc1
 : 0.17	·

# The final 5 entries of the part above lead into the next:
# Sequence of screens – TAR Tat displ	CDC25B-CDK2 inh
CCCCc1nn2c(=O)cc(COC(=O)COc3ccc(OC)cc3)nc2s1
 : 0.08	·
N/C(=N\OC(=O)C1CCc2ccccc2O1)c1ccc(C(F)(F)F)cc1 (configuration not stated)
 : ·	-0.72
Cc1nc(C)c(NC(=O)N2CCCCC2C)cc1NC(=O)N1CCCCC1C (configuration not stated)
 : -1.2	-1.71
CCN1C(=O)C(Cc2nc3ccccc3c(=O)n2Cc2ccccc2)c2ccccc21 (configuration not stated)
 : -0.5	0.86
Cc1c(-c2nsc(NC(=O)c3cccs3)n2)nnn1-c1ccc(Cl)cc1
 : 0.17	·
CSc1ncc2c(=O)n(CC(=O)Nc3ccc(Br)cc3F)cnc2n1
 : 0.7	·
Cc1nn(C(C)C(=O)N2CCN(C(=O)c3ccco3)CC2)c(=O)c2cc3occc3n12 (configuration not stated)
 : ·	-3.08
Cc1ccc(OCc2nc(-c3cc(C)nc4ccccc34)no2)c(C)c1
 : -2.95	0.95
Cc1cc2c(c(=O)n1Cc1ccccn1)C(c1ccco1)C(C#N)=C(N)O2 (configuration not stated)
 : ·	-0.09
CCCc1nc2nc(C)c(NS(=O)(=O)c3cc(OC)ccc3OC)c(=O)n2[nH]1
 : 0.59	-1.26
CN1C(=O)c2[nH]nc(-c3ccc(F)cc3)c2C1c1ccccn1 (configuration not stated)
 : -1.5	-0.44
CC(=O)Nc1c(C)nc2nc[nH]n2c1=O
 : 1.6	-1.48
Cc1cc2c3c([nH]c2cc1S(=O)(=O)Nc1cccc(Br)c1)CCCC3=O
 : 2.49	·
O=C1C=CC(=O)N1CCc1ccccc1
 : ·	-1.33
O=C(C1=C(OC(=O)c2ccco2)c2ccccc2S(=O)(=O)N1Cc1ccccc1)c1ccccc1
 : 0.4	0.49
CC1(C)CC(=O)C2=C(C1)Nc1ncnn1C2c1ccc(F)cc1 (configuration not stated)
 : -2	·
CSCCOC(=O)C1=C(C)NC(=O)CC1c1cc2c(cc1Br)OCO2 (configuration not stated)
 : 2.45	-0.15
Cn1c(=O)c(=O)n(C)c2cc(S(=O)(=O)N3CCCC3c3ccccc3Cl)ccc21 (configuration not stated)
 : 0.71	-1.79
CCC1=NN(C(=O)c2ccncc2)C(O)(C(F)(F)F)C1 (configuration not stated)
 : ·	-1.95
CC1CCCCC1NC(=O)C1(C)Cn2c(cc3sccc32)C(=O)N1C1CCCC1 (configuration not stated)
 : 2.44	-2.41
Nc1ccc(-c2nc3ccc(C(=O)O)cc3s2)cc1
 : 1.66	1.78
Cn1nnc2c(N3CCCCC3)ncnc21
 : 1.88	·
O=S(=O)(c1ccc(Cl)cc1)N1CCN(Cc2ccc3c(c2)OCO3)CC1
 : ·	0.28
COc1cc(Cl)c(C2Oc3nc(SC)nnc3-c3ccccc3N2C(C)=O)cc1OC (configuration not stated)
 : -0.16	0.63
Cc1ccc(NS(=O)(=O)c2ccc3c(c2)C(C)(C)C(=O)N3C)cc1C
 : 3.52	·
COc1ccc(NC(=O)NCCSc2ccc(Cl)cc2)c(OC)c1
 : 1.19	·
Cc1cc2c3c([nH]c2cc1S(=O)(=O)NCCCN1CCC(C)CC1)CCCC3=O
 : 1.68	·
CCCNC(=O)C1CCC(CNS(=O)(=O)c2ccc3c(c2)CC(C)N3C(C)=O)CC1 (configuration not stated)
 : -0.33	·
CCNc1nc(Cl)nc(NCCOc2ccc(C)cc2)n1
 : 0.57	1.03
CN(Cc1ccccc1)S(=O)(=O)c1cc2c3c(c1)CC(=O)N3CCC2
 : 1.36	·
Cc1csc(NC(=O)c2noc3c2CCc2sccc2-3)n1
 : 0.35	·
CCN(CC)Cc1cc(NC2=NS(=O)(=O)c3ccccc32)ccc1OC(=O)C(C)C
 : ·	-1.51
COc1ccc(C(=O)C2C(c3ccc4c(c3)OCO4)NC(=O)NC2(O)C(F)(F)F)cc1 (configuration not stated)
 : ·	-0.72
Cc1cc2oc(C(=O)NCC(c3ccco3)N3CCCC3)c(C)c2cc1Cl (configuration not stated)
 : -0.62	-0.45
CCCCCCNC(=O)c1sc(C)nc1C
 : 0.96	-1.12

# Part of the list above, with each value named.
compound: CCCNC(=O)C1CCC(CNS(=O)(=O)c2ccc3c(c2)CC(C)N3C(C)=O)CC1 (configuration not stated)
  TAR Tat displ = -0.33
  CDC25B-CDK2 inh = ·

compound: CCNc1nc(Cl)nc(NCCOc2ccc(C)cc2)n1
  TAR Tat displ = 0.57
  CDC25B-CDK2 inh = 1.03

compound: CN(Cc1ccccc1)S(=O)(=O)c1cc2c3c(c1)CC(=O)N3CCC2
  TAR Tat displ = 1.36
  CDC25B-CDK2 inh = ·

compound: Cc1csc(NC(=O)c2noc3c2CCc2sccc2-3)n1
  TAR Tat displ = 0.35
  CDC25B-CDK2 inh = ·

# Following part.
# Sequence of screens – TAR Tat displ	CDC25B-CDK2 inh
O=C1CCCN1CCCn1c(=S)[nH]c2ccc(F)cc2c1=O
 : ·	-0.88
C#CCn1c(-c2ccco2)nc2ccccc21
 : 0.26	-1.64
Cc1nc(-c2csc(S(=O)(=O)Nc3ccc4c(c3)OCCO4)c2)no1
 : 0.96	·
CC(C)(C)NC(=O)C1C(=O)CNC23CCCCC2C1c1ccccc1O3 (configuration not stated)
 : ·	-0.04
CCN(CC)CCCNC(=O)Cn1cnc2c(nc3n2CCCCC3)c1=O
 : 0.44	-0.78
O=C(CS(=O)(=O)c1ccccc1)Nc1nc(-c2ccccn2)cs1
 : 0.4	·
Cc1cccc(Nc2nc3ccccc3n3c(C)nnc23)c1
 : 1.18	-0.5
O=S1(=O)C[C@H](N2CCCCC2)[C@@H](S(=O)(=O)c2ccc(F)cc2)C1
 : 1.35	-1.57
Cc1cccc(CNS(=O)(=O)c2cc(-c3noc(C)n3)cs2)c1
 : 2.37	·
COc1ccc(N2CSC3=C(C#N)C(c4c(F)cccc4Cl)CC(=O)N3C2)cc1 (configuration not stated)
 : -1.78	3.71*
COc1ccc2c(c1)c(=O)oc1cc(OCC(=O)O)ccc12
 : ·	1.55
CSc1ccc(N2C(=O)N3CCCN3C2c2ccc(F)cc2)cc1 (configuration not stated)
 : 0.97	0.15
CC(CC(=O)Nc1ccccc1F)S(=O)(=O)c1ccc2c(c1)CCN2C(=O)C1CC1 (configuration not stated)
 : -1.38	·
COc1ccccc1-n1nnc(-c2nc(-c3ccncc3)no2)c1N
 : -0.6	·
CCOc1cc(C2CC(=O)NC3=C2C(=O)CCC3)ccc1OC(C)C (configuration not stated)
 : 0.44	0.17
Cc1ccc(CSc2nnc([C@@H]3CCCN3)o2)cc1
 : -1.02	-0.12
CCCCCN1C(C(=O)c2ccccc2)=C(NC(=O)C(C)(C)C)c2ccccc2S1(=O)=O
 : 1.78	-0.19
NC(=S)CS(=O)(=O)Cc1cccc(C(F)(F)F)c1
 : ·	-1.99
CC1CSc2ccc(S(=O)(=O)N(Cc3ccco3)C3CCCCC3)cc2NC1=O (configuration not stated)
 : 1.72	·
O=C(c1cnn(-c2ccc(Cl)cc2)c1C1CCNCC1)N1CCN(c2ccc(Cl)cc2)CC1
 : -0.89	·
Cc1oc(S(=O)(=O)N(C)C)cc1C(=O)O
 : ·	-1.3
c1ccc(-c2cn3c4ccccc4n(CCN4CCCCC4)c3n2)cc1
 : 0.08	-0.09
Oc1ccc(Cl)c(C(c2c[nH]c3ccccc23)c2c[nH]c3ccccc23)c1
 : 0.67	0.82
O=C(O)c1ccc(-c2ccsc2)cc1
 : ·	-2.36
COCCCN(CCS(=O)(=O)N1CCNCC1)S(=O)(=O)c1ccc(Br)cc1
 : 2.82	·
CC(C)(CO)NC(=O)c1cccc(C(=O)NC(C)(C)CO)c1F
 : ·	-0.42
c1ccc2c(c1)CCN(c1nc3ccccc3c3nncn13)C2
 : -0.49	·
O=C(NCc1cccs1)c1noc2c1CCc1sccc1-2
 : 1.16	·
COc1c2c(nc3occc13)C(CC=C(C)C)(OC)C(O)CC2 (configuration not stated)
 : 1.05	·
CCn1cc2nc(SC)n(CCc3ccccc3)c(=O)c2n1
 : 0.92	·
Clc1cccc(N2CCN(CCNc3nc4ccccc4c4nc(-c5cccnc5)nn34)CC2)c1
 : -0.86	-0.6
CS(=O)(=O)Nc1ccc(Cl)c2cccnc12
 : ·	-0.98
COc1ccc(CCNS(=O)(=O)c2c(C)noc2C)cc1OC
 : 2.31	-2.8
COc1ccc2cc(CCNC(=O)C(C)C)c(=O)[nH]c2c1
 : ·	-2.91
CC(O)CNc1ncnc2c1c(-c1ccccc1)cn2-c1ccc(F)cc1 (configuration not stated)
 : 1.19	·
Cn1c(=O)c2cc3cc(Cl)ccc3nc2c2c(=O)n(-c3ccccc3)c(=O)n(-c3ccccc3)c21
 : ·	-1.31
Cc1ccc(-c2noc(-c3nnn(-c4ccc(F)c(Cl)c4)c3N)n2)cc1
 : 3.04	·
Cc1[nH]nc2c1C(c1ccc(O)c(O)c1)C(C#N)=C(N)O2 (configuration not stated)
 : 1.95	-3.56
Cc1ccc(O)c(NC(=O)c2cc(-c3ccco3)on2)c1
 : ·	-0.48
Cc1nc(-c2csc(S(=O)(=O)Nc3ccc(C(C)C)cc3)c2)no1
 : 0.24	·
CC1CCCC(NC(=O)C2CCCN(c3nnc(-n4cccc4)s3)C2)C1C (configuration not stated)
 : 0.09	0.09
CCOC(=O)c1[nH]c2sc3c(c2c1N)CCCC3
 : 5.16*	16.8*
CCc1ccc2[nH]c3nc(SCC(=O)O)nnc3c2c1
 : -0.47	0.18
Cc1ccc(OCC(O)Cn2cnc3cc(C)c(C)cc32)cc1 (configuration not stated)
 : 0.51	-1.66
CN1C(=O)c2ccccc2Sc2ccc(NC(=O)NCCCN3CCOCC3)cc21
 : 0.44	-0.31
O=C(Nc1ccccc1Cl)c1csc2c1CCCCC2
 : 0.09	-1.7
CC(C)c1ccc(C2NC(=O)c3n[nH]c(-c4cccs4)c32)cc1 (configuration not stated)
 : 1.41	-0.05
CCOC(=O)c1c(S(=O)(=O)N2CCC(C)CC2)c(C)n(C)c1C
 : 1.04	·
C=CCn1c(SC(C)C(=O)Nc2nc(C)c(C)s2)nnc1-c1cc2ccccc2o1 (configuration not stated)
 : 1.8	·
CCN1CNC(=S)N(c2cccc(Cl)c2)C1
 : ·	-0.7
CC(C)CCNc1c(-c2ccc(C(C)C)cc2)c(=O)c1=O
 : 2.1	·
